VDR inhibitor = blocks the human vitamin D receptor | Potency, µM, for the others: max response, negative = inhibition, usual class: inhibitors | P11473 | VDR-SRC2-3 peptide fluorescence polarization, 2 h | 0.93% of 400,000 active; active = well fitted inhibition curve with a large enough effect; inconclusive = small, poorly fitted or top-dose-only effect, or another doubt; inactive = no such curve, though single readings can be large or run the other way; note: series mostly up to about 120 µM
Target sequence (P11473 whole entry, looked up): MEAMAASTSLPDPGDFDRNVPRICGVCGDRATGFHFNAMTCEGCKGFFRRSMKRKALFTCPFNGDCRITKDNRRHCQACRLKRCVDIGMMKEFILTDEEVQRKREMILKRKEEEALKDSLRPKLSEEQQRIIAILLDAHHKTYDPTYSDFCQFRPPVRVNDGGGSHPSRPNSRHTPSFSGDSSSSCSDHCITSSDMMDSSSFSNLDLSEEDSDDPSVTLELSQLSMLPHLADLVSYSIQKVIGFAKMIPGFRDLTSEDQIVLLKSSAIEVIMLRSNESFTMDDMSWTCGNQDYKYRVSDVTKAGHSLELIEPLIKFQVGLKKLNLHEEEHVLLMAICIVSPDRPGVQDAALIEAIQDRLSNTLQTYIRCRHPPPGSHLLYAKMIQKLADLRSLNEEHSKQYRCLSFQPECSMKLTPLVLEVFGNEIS
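FP read-out; VDR + SRC2-3 coactivator peptide; 23 nl compound by pintool; 2 h RT incubation; reagents held at 4 deg C, protected from light.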
* marks the source's active call; other numbers are inactive results; ? = inconclusive; & = joins results of further samples; [ ] = another dose, or the depositor's remark. % is set by controls: 0 for no effect and ±100 for the full control effect; potency is the fitted concentration of half-maximal effect. The list is partial; count on the stated rates, not on these rows.

VDR inhibitor	SMILES
-8.5%	O=C(NCCc1ccccc1)C1CCCN(c2ncnc3c2nc2n3CCCCC2)C1 (centres undefined)
-10.5%	COc1ccc(CNc2ncnc3cc(Cl)ccc23)cc1OC
-3.0%	O=C(NC1CC(=O)N(c2ccc(Cl)cc2)C1)c1cccs1 (centres undefined)
5.2%	COC(=O)COc1cc(OCC(=O)OC)c2c(C)c(Cl)c(=O)oc2c1
-0.2%	Cc1ccccc1C(=O)NCCNc1ccc([N+](=O)[O-])cc1
-1.3%	Cc1ccsc1C(=O)OCC(=O)NCCNC(=O)COC(=O)c1sccc1C
-3.6%	Cc1ccc(C(=O)N/N=C/C2=Cc3ccccc3OC2C)cc1 (centres undefined)
-5.5%	CCC(CC)COC(=O)C1=C(C)NC(=O)NC1c1ccc(OC)cc1 (centres undefined)
-16.4%	Cc1ccc(C(=O)N2CCOCC2)cc1S(=O)(=O)N1CCCC1
3.3%	COc1ccc(/C(C)=N/NC(=O)C(NC(=O)c2ccccc2)c2n[nH]c(=O)c3ccccc23)c(OC)c1 (centres undefined)
?	COc1ccc(Sc2ccc(/C=C3\C(=O)NN(c4ccccc4)C3=O)o2)cc1
6.5%	COc1ccccc1-c1nn(CCC(=O)Nc2ccccc2)c2nc(C)cc(C)c12
-8.8%	CCCCNC(=O)CSc1nc2ccc(N3CCOCC3)cc2c(=O)n1CCc1ccccc1
-1.6%	COc1ccc(NC(=S)N(CCN2CCOCC2)Cc2cc3cc4c(cc3[nH]c2=O)OCCO4)cc1
5.6%	Cc1cccc(-c2cc(C(=O)O)c3c(-c4ccc(F)cc4)[nH]nc3n2)c1
-11.8%	O=C(NCCc1ccccc1)c1cccnc1N1CCCCCC1
20.5%	Cc1ccc(Br)cc1S(=O)(=O)N1CCN(c2ccccc2)CC1
-11.5%	Cn1c(C(=O)N2CCCC2)cc2c(=O)n(C)c3ccccc3c21
5.0%	Cc1cnc(NC(=O)c2cccs2)s1
-1.0%	O=C(CN1C(=O)C2CCCCC2C1=O)N1CCN(c2ccccc2)CC1 (centres undefined)
5.3%	Nc1cc(=O)nc(SCC(=O)Nc2ccccc2Cl)n1-c1ccccc1
5.4%	C(=N\Nc1ccc(-n2ccnc2)nn1)/c1ccccc1
1.3%	COc1ccc(C(=O)Nc2ccccc2C(=O)Nc2cccnc2)cc1
-9.7%	CC(=O)c1cccc(NC(=O)NCc2ccccn2)c1
-22.3%	c1ccc(CCNCc2cccs2)nc1
-18.5%	CCOc1cc(/C=C2/N=C(c3ccc4c(c3)OCO4)OC2=O)ccc1OC(C)=O
-4.4%	CCOc1ccc2nc(Cl)c(C3CC(c4ccc(OC)cc4)=NN3S(C)(=O)=O)cc2c1 (centres undefined)
-14.3%	CCOc1ccc(NC(=S)Nc2ccccc2C2CC2)cc1
9.5%	CCOC(=O)/C=C1\SCC(=O)N1CC(=O)Nc1ccccc1OC(F)F
?	Cc1ccc(-n2nc(-c3ccc(N)cc3)cc2N)cc1
5.7%	O=C(Nc1ccccc1C(=O)N1CCOCC1)c1ccc([N+](=O)[O-])cc1
-4.9%	C=CC[C@H]1CC(C)=C[C@H](CC=C)N1
0.1%	COc1ccc2[nH]c3c(c2c1)CCN1C(=O)C(CC(=O)NCCCn2ccnc2)C[C@H](C(=O)N2CCOCC2)[C@@]31C (some centres undefined)
4.4%	O=C(Cn1nc(C(F)(F)F)c2c1CCCC2)N1CCOCC1
8.5%	CC(C)(C)c1ccc(C(=O)NCC(c2cccs2)S(=O)(=O)c2ccccc2)cc1 (centres undefined)
4.7%	Cc1nn(CC(=O)NCCCN2CCN(Cc3ccccc3)CC2)c(=O)c2cc(-c3ccccc3)nn12
?	CN(C(=O)c1ccco1)c1nc(-c2ccc(Cl)cc2)cs1
-1.5%&4.0%	COc1cc2oc(=O)cc(-c3ccc(-c4ccc(C)cc4)cc3)c2c(OC)c1OC
9.4%	CCCN(CCC)C(=O)c1c(NC(=O)CC)sc2c1CCCCC2
1.0%	CC(=O)N1CCN(C(=O)c2ccc(S(=O)(=O)Nc3ccccc3Cl)cc2)CC1
-3.2%	Cc1nc(CSc2nc3[nH]ncc3c(=O)n2-c2ccccc2)cs1
3.2%	COCCn1c(SCC(=O)c2ccccc2)nc2ccccc2c1=O
2.7%	COc1ccc([C@H]2C=C(C(=O)O)O[C@@H](OCc3ccc(CO)cc3)C2)cc1
-0.2%	O=C(COc1ccc(/C=N/NS(=O)(=O)c2ccccc2)cc1)Nc1cccc(Cl)c1
7.9%	COc1ccc(OC)c(N(CC(=O)N2CCC(C)CC2)S(=O)(=O)c2ccccc2)c1
-16.9%	COc1ccc(COC(=O)c2cccc(S(=O)(=O)N3CCN(C(C)=O)CC3)c2)cc1F
27.0%	COc1ccc(CCNC(=O)Nc2cccs2)c(OC)c1
-16.5%	O=C(N/N=C\c1cn[nH]c1-c1ccc(Cl)cc1)c1cccs1
-5.7%	Cc1ccc(SCC(=O)NNC(=O)c2ccccc2)cc1C
4.2%	O=C(CNC(=O)c1ccccc1)NCC(=O)OCc1ccc(Cl)cc1
-21.1%	CC(C)CNC(=O)COC(=O)c1ccc([N+](=O)[O-])cc1Cl
-24.4%	O=C(NN=C1CCCC1)C1COc2ccccc2O1 (centres undefined)
-15.4%	CCC(=O)CN(Cc1cc(OC)ccc1OC)S(=O)(=O)c1ccccc1Br
-12.2%	Cc1ccc(-c2nc(CS(=O)(=O)CC(=O)NCc3ccccc3Cl)c(C)o2)cc1
4.7%	CCN(CC)C(=O)CSc1nnc2ccc3ccccc3n12
-14.5%	CCOC(=O)c1cc(-c2cccs2)nc2c1c(C)nn2-c1ccccn1
-1.9%	CCc1ccc(CN(Cc2ccco2)C(=O)COc2ccccc2Cl)cc1
5.0%	Cc1cc(S(=O)(=O)N2CCOCC2)ccc1OCC(=O)Nc1cccc(C(F)(F)F)c1
-4.4%	N#CCN1C(=O)C2CCCN2c2ccc(S(=O)(=O)N3CCOCC3)cc21 (centres undefined)
-4.4%	COc1ccc(CNC(=O)c2ccc3c(c2)N(Cc2ccccc2F)C(=O)c2ccccc2S3(=O)=O)cc1

The results go on.
VDR inhibitor	SMILES
-5.0%	O=C(c1ccc(CSc2nc3ccncc3[nH]2)cc1)N1CCCCCC1
6.4%	Cc1ccc(NCc2nnc(SCC(=O)Nc3cccc(O)c3)n2CC2CCCO2)c(C)c1 (centres undefined)
11.3%	O=C(Nc1ccccc1)C1CCN(C(=O)c2ccco2)CC1
11.4%	Nc1ccccc1C(=O)N/N=C1/C2CN3CCN(C2)CC1(Cc1ccccc1)C3
3.6%	CC1(c2ccc3c(c2)OCCO3)NC(=O)N(CC(=O)Nc2c(F)cccc2F)C1=O (centres undefined)
0.3%	Cc1ccc(N2C(N)=C(C#N)C3(C(=O)N(C)c4ccccc43)C3=C2CC(C)(C)CC3=O)cc1Cl (centres undefined)
6.7%	COc1ccc(-c2c3c(=O)n(C)c(=O)n(C)c3cn2Cc2cccnc2)cc1
9.6%	O=C(CSc1nc(-c2ccc(F)cc2)cs1)N1CCc2ccccc21
-8.3%	O=C(O)CC(c1ccccc1)c1ccccc1
-15.2%	CCNc1ncc2nc(-c3cn(C)c4ccccc34)c(=O)n(-c3ccc(OC)cc3)c2n1
-5.0%	Cc1ccc(C(=O)C(C)OC(=O)Cc2n[nH]c(=O)c3ccccc23)cc1C (centres undefined)
-8.5%	CCC(=O)Nc1ccc(S(=O)(=O)N2CCCCC2)cc1OC
-1.7%	Cc1cccc(C)c1NC(=O)CN(C)C(=O)CN1C(=O)NC2(CCCC2)C1=O
-3.6%&-11.1%	Cn1c(=O)c(=O)n(C)c2cc(S(=O)(=O)N3CCCC3C(=O)Nc3ccc(F)cc3)ccc21 (centres undefined)
14.9%	CCNc1nc(Oc2ccc(=O)[nH]n2)nc(N2CCOCC2)n1
-15.3%	Oc1c(Br)cc(/C=N/Nc2nncc3ccccc23)cc1Br
-15.4%	COc1ccc(C(=O)N2CC(c3ccccc3)CC2=O)cc1 (centres undefined)
0.5%	COC(=O)c1cc2sccc2n1CC(=O)Nc1ccc(OC)c(OC)c1
19.1%	COc1cc(NC(=O)n2ncc3cc(Cl)ccc32)cc(OC)c1
-0.7%	C=CCN=C1N[C@@H](c2ccccc2)C(C(=O)OC)=C(C)N1CCOC
11.2%	CNC(=S)N1CCC(NC(=O)C(Cc2ccc(F)cc2)NC(C)=O)CC1 (centres undefined)
-5.8%	OCCN(Cc1ccccc1)Cc1cccc(Cl)c1Cl
-3.7%	COc1ccccc1OCCc1nnc(N)s1
-0.7%	CCOC(=O)c1sc(NC(=O)c2ccc(CC)s2)nc1C
-7.6%	CC1=C(C(=O)OCc2ccc(C)cc2)C(c2ccccc2F)CC(=O)N1 (centres undefined)
-4.6%	CC1(C)c2cc(Cl)ccc2-n2c1cc(O)c(-c1ccccc1)c2=O
-7.7%	Cc1ccccc1C(=O)N1CCN(CCNC(=O)C(=O)Nc2ccc(Br)cc2)CC1
6.3%	Cc1nc2ccccc2n(CC(=O)Nc2cc(Cl)cc(Cl)c2)c1=O
11.1%	CC(=O)/C(N=Nc1c(C)n(C)n(-c2ccccc2)c1=O)=C(\C)O
-6.4%	O=C(Cn1cc2c(n1)CCCCC2)NCc1ccccc1

Brought forward from above: 2 entries; new compounds follow.
VDR inhibitor	SMILES
11.1%	CC(=O)/C(N=Nc1c(C)n(C)n(-c2ccccc2)c1=O)=C(\C)O
-6.4%	O=C(Cn1cc2c(n1)CCCCC2)NCc1ccccc1
1.0%	COC(=O)C1CCN(CC(=O)Nc2ccc(OC)c(Cl)c2)CC1
-1.6%	CNC(=O)c1[nH]cnc1C(=O)Nc1ccccc1OC
-1.7%	Cc1ccnc(NC2(C(F)(F)F)N=C3SCCN3C2=O)c1 (centres undefined)
23.6%	Cc1oc(-c2ccc(Cl)cc2)nc1CSCC(=O)NCCCN1CCOCC1
16.6%	Cc1cccc(-n2ncc(C(=O)N3CCc4ccccc4C3)c2C2CCN(C(=O)OC(C)(C)C)CC2)c1
-6.3%	Cc1ccc(OCC(=O)Nc2ccc(-c3nc4ncccc4o3)cc2)cc1
-4.4%	Cc1ccc(CCc2nnc(SCC(=O)Nc3cc(Cl)ccc3Cl)n2-c2ccccc2)o1
25.7%	COc1cc(NC(=O)CN(C)S(=O)(=O)c2ccc3nc(C)sc3c2)cc(OC)c1
-23.1%	COc1ccccc1CC(=O)N1CCCc2cc(C)ccc21
-7.4%	CCOC(=O)c1cnc(SCC(C)C)nc1N
7.0%	O=c1cc(CSc2ncn[nH]2)[nH]c2ccc(F)cc12
10.1%	Cc1ccc2oc(C(=O)NCc3ccc(S(N)(=O)=O)cc3)cc(=O)c2c1
-7.3%	COc1ccc(CCN2CC(C(=O)NCc3cc(C)on3)CCC2=O)cc1 (centres undefined)
1.1%	CC(C)=CCN1CCN(Cc2c[nH]c3ccccc23)CC1CCO (centres undefined)
-9.2%	Cc1[nH]c2c(C)cccc2c1CCNS(=O)(=O)c1cccc([N+](=O)[O-])c1

Random excerpt: 6 records from the list, in no set order.
VDR inhibitor	SMILES
1.1%	CC(C)=CCN1CCN(Cc2c[nH]c3ccccc23)CC1CCO (centres undefined)
1.0%	COC(=O)C1CCN(CC(=O)Nc2ccc(OC)c(Cl)c2)CC1
-7.3%	COc1ccc(CCN2CC(C(=O)NCc3cc(C)on3)CCC2=O)cc1 (centres undefined)
-4.4%	Cc1ccc(CCc2nnc(SCC(=O)Nc3cc(Cl)ccc3Cl)n2-c2ccccc2)o1
25.7%	COc1cc(NC(=O)CN(C)S(=O)(=O)c2ccc3nc(C)sc3c2)cc(OC)c1
-1.6%	CNC(=O)c1[nH]cnc1C(=O)Nc1ccccc1OC

(further entries)
VDR inhibitor	SMILES
12.8%	NC(=O)c1ccccc1NC(=O)Nc1ccccc1Cl
-17.5%	CCCSc1nnc2c(n1)OC(c1ccc(Br)s1)Nc1ccccc1-2 (centres undefined)
-13.3%	COc1ccc(S(=O)(=O)c2nnn(-c3ccc(C(C)C)cc3)c2C)cc1
-4.1%	COc1cc2cc(C(=O)N/N=C/c3cccc(OC)c3OC)[nH]c2cc1OC
3.1%	CCS(=O)(=O)N1CCCC(C(=O)NCc2ccc3c(c2)OCO3)C1 (centres undefined)
-24.1%	CC(=O)C1=C(C)OC(N)=C(C#N)C1c1cccc([N+](=O)[O-])c1 (centres undefined)
-4.6%	CCC(=O)NC(c1ccccc1)c1nc2ccccc2[nH]1 (centres undefined)
19.7%	O=C(O)C1Cn2c(nc3c(c2=O)C2(CCCC2)Cc2ccccc2-3)S1 (centres undefined)
-7.0%	COc1cc(C(=O)O)nc2ccccc12
61.5%[activator]	Cc1ccc(NC(=O)c2ccc(C#CC3(O)CCCCC3)cc2)cc1C
6.4%	CSc1ncc(C(=O)Nc2ccccc2C(F)(F)F)c(-c2ccccc2)n1
-4.4%	C[C@H](NS(=O)(=O)c1ccc(Cl)cc1)C(=O)OCC(=O)c1ccc[nH]1
1.9%	COc1ccc([C@H]2CC(=O)C=C(c3cc(F)ccc3F)C2)cc1OC
-2.5%	COc1cccc(-c2nccc(NCc3cccc(C)c3)n2)c1
-7.9%	CN(C(=O)CN1C(=O)/C(=C/c2ccccc2F)SC1=S)C1CCS(=O)(=O)C1 (centres undefined)
5.4%&0.5%	COc1cccc(NC(=O)c2ccc3c(c2)CCN3S(C)(=O)=O)c1
14.4%	COc1cc(NC(=O)c2ccc(-c3nc(CSc4ccccc4)c(C)o3)cc2)cc(OC)c1
-10.7%	Cn1c(=O)oc2cc(S(=O)(=O)NCCC(=O)N3CC=C(c4ccccc4)CC3)ccc21
7.2%	CCCn1c(N)c(N(CCOC)C(=O)c2cccc(C(F)(F)F)c2)c(=O)[nH]c1=O
-8.2%	COc1ccc(OC)c2sc(N3CCc4ccccc4C3)nc12
1.7%	COc1ccc(/C=N/NC(=O)c2cccc(C(=O)N/N=C/c3ccc(OC)c(OC)c3)n2)cc1OC
-3.9%	c1ccc(-c2csc3nnc(SCc4ccc5c(c4)OCCO5)n23)cc1
16.0%	Brc1ccc(-c2nnc(SCCC3OCCCO3)o2)cc1
-3.9%	c1ccc(OCc2nn3c(-c4ccccn4)nnc3s2)cc1
